Screening results (PubChem)
Vaccinia pol inh: inhibitors of vaccinia virus processive DNA synthesis (E9 polymerase). in vitro processive DNA synthesis, absorbance read-out; stronger effect = lower value; some inactives read as strong as hits. normalized absorbance, % (concentration not given with the values). 0.94% of 46,000 active;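 active = replicate mean up to 90% and picked by the depositor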;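 note: 100% = median of the test wells of a plate; 100 nL library stock went into each well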
Active calls of the source: *.

SMILES | Vaccinia pol inh
CC(=O)NC1CC(C)(C)N(OC(=O)c2ccccn2)C(C)(C)C1 | 98
CC1c2cccc(O)c2CC2=C(O)C3(O)C(O)=C(C(N)=O)C(=O)C(N(C)C)C3C(O)C21 (centres undefined) | 95
Cc1ccc(-c2nsc(SCC(N)=O)n2)cc1 | 103
CCOC(=O)c1c(-c2ccccc2)oc2ccc(OC)cc12 | 100
COc1ccc(-c2cc(C(N)=O)[nH]n2)c(F)c1 | 100
N#CCC(=O)N1CCCC1 | 102
OCc1nc2ccccc2s1 | 100
CCN1CCCC1CNC(=O)c1cc(S(N)(=O)=O)ccc1OC (centres undefined) | 102
CC(C)CCNC(=O)c1ccc(CS(=O)(=O)Cc2ccc(F)cc2)o1 | 101
CCOC(=O)c1cc2cc(OCc3ccccc3)ccc2n1C(=O)c1ccccc1C(=O)O | 109
O=C(c1cc(C(=O)Nc2ccccc2)c(=O)n(-c2ccccc2)c1)c1cc(Cl)ccc1O | 100
Cc1ccc(-n2c(NN)nc3sc4c(c3c2=O)CCCC4)cc1 | 100
CCN(CC)S(=O)(=O)c1ccc2[nH]c3c(c2c1)CCCC3 | 98
CCc1ccccc1NC(=O)NCc1c(-n2cccc2)sc2c1CCCC2 | 94
CC(Nc1nc(F)cc(=O)[nH]1)C(=O)O (centres undefined) | 100
O=C1CCCN1CN(C(=O)c1ccccc1)c1ccccc1 | 102
Cc1cc(C)c(S(=O)(=O)c2cccc(C(F)(F)F)c2)c(=O)[nH]1 | 94
Cc1ccc(C(=O)Nc2nc3ccc(S(C)(=O)=O)cc3s2)cc1 | 96
NNC(=O)c1ccc(-c2ccccc2F)cc1 | 88
Cc1ccc(C)c(N2C(=O)CS/C2=C(/C#N)S(=O)(=O)c2ccccc2)c1 | 100
Cc1cc(C)nc(SCCS(=O)Cc2ccc(Cl)cc2)n1 (centres undefined) | 98
O=C(CSc1nnc2sc3ccccc3n12)NCc1ccccc1 | 100
CCN(Cc1ccncc1)C(=O)c1ccc(I)cc1 | 86
O=C(CSc1nc2ccccc2c(=O)n1CC1CCCO1)Nc1cccc(C(F)(F)F)c1 (centres undefined) | 98
O=C(Nc1c2c(nn1-c1ccc(Oc3ccccc3)cc1)CSC2)c1ccco1 | 100

Following part.
SMILES | Vaccinia pol inh
COc1ccc2c(c1)CCc1c(C(=O)N3C(C)CCCC3C)noc1-2 (centres undefined) | 101
CC(C)N(Cc1ccccc1)C(=O)C1=CCN(S(=O)(=O)c2ccc(F)cc2)CC1 | 104
COc1ccc(N=C(Nc2ccc(OC)cc2)SC)cc1 | 94
Cc1cccc(NC(=O)CSc2nnc(CCC(=O)O)c(=O)n2N)c1 | 99
CCNc1c(NC(=O)c2cccs2)c(=O)oc2ccccc12 | 84
CN1/C(=C\C=C2C(=O)CC(C)(C)CC2=O)C(C)(C)c2ccccc21 | 100
Nc1nccc(-c2cccc(C(F)(F)F)c2)n1 | 103
CC(C)(C)OC(=O)N1CCC(CNC(=O)c2ccc(F)cc2F)CC1 | 108
O=C(O)CC(C(=O)O)n1c(O)c(/C=C2/C=Nc3ccccc32)sc1=S (centres undefined) | 99
CCOc1ccc(Cc2nnc(SCC(=O)c3ccc(Cl)cc3)o2)cc1 | 101
C=CCC1(C2CCCC2)C(=O)NC(=O)NC1=O | 93
CCOc1cc(/C=C2\OC(=O)c3c2cc(C)[nH]c3=S)ccc1O | 99
CCn1c(=O)cc(N2CCC(C)CC2)[nH]c1=O | 66
N#CCc1c(Cl)sc2ccc(Cl)cc12 | 101
CN(C)CCNC(=O)c1ccc2c(c1)N(Cc1ccc(F)cc1)C(=O)c1ccccc1S2(=O)=O | 98
CC(CN(C)C)CN1c2ccccc2CCc2ccccc21 (centres undefined) | 95
COc1ccc(Cl)cc1NC=C1C(=O)OC2(CCCCC2)OC1=O | 97
CCc1ccc(-c2csc(N)n2)cc1 | 96
Cc1nc2sc(C(c3cccs3)N3CC(C)CC(C)C3)c(O)n2n1 (centres undefined) | 97
O=C1CC(c2ccccc2C(F)(F)F)C2=C(CC(c3cccs3)CC2=O)N1 (centres undefined) | 96
CCOC(=O)Cc1nc(OCC(=O)c2ccc(F)cc2)cs1 | 100
Cc1ccc(C)c(SCC(=O)O)c1 | 100
Cc1c2cnn(CC(=O)N3CCC4(CC3)OCCO4)c(=O)c2c(C)n1Cc1ccccc1F | 101
O=C(O)C1C2C=CC(C2)C1C(=O)N1CCN(C(c2ccccc2)c2ccccc2)CC1 (centres undefined) | 98
CCCNc1nc2ccccc2n2c(C)nnc12 | 94

New compounds follow
SMILES | Vaccinia pol inh
Cc1ccc(C)c(SCC(=O)OCC(=O)N2CCCc3ccccc32)c1 | 102
COC(=O)[C@@]1(C#N)C(c2cc(OC)cc(OC)c2)[C@@H](C#N)N2c3ccccc3C=C[C@@H]21 (some centres undefined) | 98
CCC(CC)C(=O)N1CCN(c2ccccc2)CC1 | 101
COc1ccc(-c2nc3c(c(SC)n2)COC(C)(C)C3)cc1 | 109
O=C(NCCc1ccccc1)C1CC(=O)N(CCc2ccccc2)C(=Nc2ccc(F)cc2)S1 (centres undefined) | 97
Cc1nc(-c2cc(C#N)c(SCCNC(=O)c3ccc(Cl)cc3Cl)nc2C)cs1 | 91
Nc1ccc(S(=O)(=O)NCCC2=CCCCC2)cc1 | 101
CCOC(=O)c1ccc(N=Cc2cccs2)cc1 | 113
CCOc1cc(/C=c2\sc3nc4c(C)c(C)ccc4n3c2=O)cc(Cl)c1O | 99
CCCCc1cc(=O)oc2c(C)c(OCC(=O)N3CCCC3)ccc12 | 99
COc1cc(N=c2scc(-c3ccc(S(=O)(=O)N4CCCC4)cc3)n2C)c(OC)cc1Cl | 100
C=CCN1C(=O)/C(=C\c2ccc(OCc3ccccc3C#N)cc2)C(=O)NC1=S | 100
CCOC(=O)c1sc2nc(NC(C)=O)sc2c1C | 100
COc1ccc(C(Nc2ccccn2)c2c(C)[nH]c3ccccc23)cc1OC (centres undefined) | 102
Cc1cc2cc(CNC(=O)c3ccc(S(=O)(=O)N(C)C)cc3)ccc2[nH]1 | 101
N/C(C[n+]1ccccc1)=N\O | 98
CC1CN(/C=C(\C#N)S(=O)(=O)c2ccc(Br)cc2)CC(C)O1 (centres undefined) | 93
C=C(C)CC(Nc1ccccc1F)c1ccco1 (centres undefined) | 100
CCc1ccc(NC(=O)CN(c2ccc3c(c2)OCO3)S(=O)(=O)c2c(C)noc2C)cc1 | 105
COC(=O)c1ccc(CSc2nncn2N)o1 | 100
CCC1(c2cccc(OC(=O)C3CCCCC3)c2)CCCCN(C)C1=O (centres undefined) | 79
O=C(NCc1ccccn1)c1ccc(/C=N/O)nc1 | 96
CCOC(=O)c1sc2ncnc(Nc3ccc(OCC)cc3)c2c1C | 94
CCOC(=O)c1sc(NC(=O)Cc2cccc3ccccc23)cc1C | 101
CC1Oc2ccccc2OC1(O)c1ccccn1 (centres undefined) | 97

An excerpt of these results, tab-delimited.
compound	Vaccinia pol inh
CCOc1cc(/C=c2\sc3nc4c(C)c(C)ccc4n3c2=O)cc(Cl)c1O	99
COc1ccc(-c2nc3c(c(SC)n2)COC(C)(C)C3)cc1	109
Cc1cc2cc(CNC(=O)c3ccc(S(=O)(=O)N(C)C)cc3)ccc2[nH]1	101
CC1CN(/C=C(\C#N)S(=O)(=O)c2ccc(Br)cc2)CC(C)O1 (centres undefined)	93

(list continues)
SMILES | Vaccinia pol inh
COc1ccc(-c2nc(N)ncc2-c2cscn2)c(O)c1 | 100
NNc1nc(-c2ccccc2)c2ccccc2n1 | 97
O=C(NC1CCOC1=O)c1ccc(COc2ccc(Cl)cc2Cl)o1 (centres undefined) | 100
CN(C)C(CC(=O)Nc1cccc(C(F)(F)F)c1)C(=O)O (centres undefined) | 82
Cc1cc(C)cc(NC(=O)COC(=O)c2cccnc2Cl)c1 | 94
CC(Oc1ccc(F)cc1)C(=O)N(Cc1ccccc1Cl)C1CCS(=O)(=O)C1 (centres undefined) | 99
CCCN(Cc1ccccc1)S(=O)(=O)c1ccc(N2C(=O)CCC2=O)cc1 | 105
CCOC(=O)c1c(CN2CCCCC2)n(-c2ccccc2)c2ccc(OC(C)=O)cc12 | 100
O=c1nc2n(-c3ccc(Br)cc3)c3cccc(Cl)c3cc-2c(=O)[nH]1 | 100
Cc1cccc(NCc2csc(-c3ccccc3)n2)c1 | 94
O=S(=O)(c1ccccc1)C1c2ccccc2Oc2ccccc21 | 100
CCCN(c1ccccc1OC)S(=O)(=O)c1cc(Br)cnc1N | 100
O=C(O)c1cc(-n2cccc2)ccc1N1CCOCC1 | 84
O=c1ccc2cc(S(=O)(=O)N3CCCCC3)ccc2[nH]1 | 103
O=C(/C=C/c1cccs1)Nc1ccc2c(c1)OCO2 | 102
COc1ccc(N2C(=O)CC(c3cn(Cc4ccccc4)c4ccccc34)C2=O)cc1 (centres undefined) | 97
C=CCc1c(C)nc(N)[nH]c1=O | 100
O=C(Cc1cccs1)Nc1nnc(-c2ccc(Cl)cc2)s1 | 101
COc1ccccc1NC(=O)CCN1C(=O)c2ccccc2Sc2ncccc21 | 94
Nc1cc(C(F)(F)F)ccc1C(=O)O | 93
O=C(CSc1nc2ccccc2[nH]1)NCCc1ccccc1 | 103
O=S(=O)(c1ccc(-n2cccn2)cc1)N1CCCC1 | 110
CCCc1nc2ccccc2c2nc(N)nn12 | 97
CC(=O)N1c2ccccc2CCc2ccc(NC(=S)NC(=O)/C=C/c3ccccc3)cc21 | 96
CC(C(=O)O)n1c(C(F)(F)F)nc2ccccc21 (centres undefined) | 112

More records.
SMILES | Vaccinia pol inh
CC(NC(=O)NCc1noc2ccccc12)c1ccccc1 (centres undefined) | 106
O=c1n(Cc2ccc(F)cc2)nc2n1-c1ccccc1SC2 | 102
Cc1cc2ncn(CCOc3ccccc3)c2cc1C | 90
Cc1ccc(C(=O)N/C(=C\c2ccco2)C(=O)NC2CCCCC2)cc1 | 101
CCN(CC)c1ccc(C=C2C(=O)OC(c3ccccc3)OC2=O)cc1 (centres undefined) | 99
Cc1ccc(C(O)CCc2ccc(N)cc2)cc1 (centres undefined) | 88
CS(=O)(=O)N1CCN(C(=O)c2ccccc2)C1 | 100
O=C(CCC1CCCCC1)Nc1nc2ccccc2s1 | 100
CN(C)c1ccc(NC(=O)Nc2ccc(OCc3ccccc3)cc2)cc1 | 120
O=C1c2ccccc2NC(c2cccs2)N1c1ccccc1 (centres undefined) | 100
O=c1[nH]cnc2scc(-c3ccc(Cl)cc3)c12 | 106
O=C(COC(=O)c1c(F)cccc1Cl)c1ccccc1F | 101
CCCc1nc(SCC(=O)c2ccccc2Cl)[nH]c(=O)c1C | 97
CCSC1=N/C(=C\c2cc(Br)c(OC(C)=O)c(OC)c2)C(=O)S1 | 101
C=CCSc1nc2ccccc2c(=O)n1-c1ccccc1 | 99
OCCN1CCN(CC#CCn2c3ccccc3c3ccccc32)CC1 | 100
O=c1cc(-c2cccs2)oc2ccc(Br)cc12 | 92
CCC(=O)Nc1ncc2c(n1)CC(C)(C)CC2=O | 101
S=C1NCCN1CCOc1ccccc1 | 100
O=c1c(C=Nc2ccccc2)c(Nc2ccccc2)[nH]n1-c1ccccc1 | 99
CCOC(=O)c1c(C)n(C)c2ccc(O)c(S(=O)(=O)c3ccc(C)cc3)c12 | 99
COc1ccc(NC(=O)c2cc3c(s2)-c2ccccc2SC3)cc1 | 106
CN(C)CCN1C(=O)C(=O)/C(=C(/O)c2ccccc2)C1c1ccco1 (centres undefined) | 105
O=C(c1cc(-c2cccs2)nc2ccccc12)N1CCOCC1 | 103
CC(C)CNC(=O)c1cc(-c2ccccc2O)on1 | 98

17 compounds already listed, ordered by length of the SMILES, ascending:
SMILES | Vaccinia pol inh
S=C1NCCN1CCOc1ccccc1 | 100
Cc1cc2ncn(CCOc3ccccc3)c2cc1C | 90
O=C(CCC1CCCCC1)Nc1nc2ccccc2s1 | 100
O=c1cc(-c2cccs2)oc2ccc(Br)cc12 | 92
CC(C)CNC(=O)c1cc(-c2ccccc2O)on1 | 98
CS(=O)(=O)N1CCN(C(=O)c2ccccc2)C1 | 100
O=c1[nH]cnc2scc(-c3ccc(Cl)cc3)c12 | 106
O=C(COC(=O)c1c(F)cccc1Cl)c1ccccc1F | 101
O=c1n(Cc2ccc(F)cc2)nc2n1-c1ccccc1SC2 | 102
OCCN1CCN(CC#CCn2c3ccccc3c3ccccc32)CC1 | 100
CCCc1nc(SCC(=O)c2ccccc2Cl)[nH]c(=O)c1C | 97
COc1ccc(NC(=O)c2cc3c(s2)-c2ccccc2SC3)cc1 | 106
CN(C)c1ccc(NC(=O)Nc2ccc(OCc3ccccc3)cc2)cc1 | 120
CCN(CC)c1ccc(C=C2C(=O)OC(c3ccccc3)OC2=O)cc1 (centres undefined) | 99
Cc1ccc(C(=O)N/C(=C\c2ccco2)C(=O)NC2CCCCC2)cc1 | 101
CN(C)CCN1C(=O)C(=O)/C(=C(/O)c2ccccc2)C1c1ccco1 (centres undefined) | 105
CCOC(=O)c1c(C)n(C)c2ccc(O)c(S(=O)(=O)c3ccc(C)cc3)c12 | 99

The list continues:
SMILES | Vaccinia pol inh
Nc1ccc(Br)cc1C(O)c1ccccc1 (centres undefined) | 100
COc1cc(/C=C2\C(=O)Nc3ccc(Cl)cc32)cc(OC)c1OC | 112
Fc1ccc(Sc2cc(Cl)c(-c3ccccc3)nn2)cc1 | 97
CCOC(=O)c1nonc1N | 100
COc1cc(OC)cc(C(=O)Nc2ccc(O)c(-c3nc4ccccc4s3)c2)c1 | 101
CCC(=O)Nc1cccc(NC(=O)c2ccccc2Cl)c1 | 100
CNC(=O)CC1C(=O)N(c2ccc(Cl)cc2)C(=S)N1NC(=O)c1cccc(F)c1 (centres undefined) | 100
CC(C)c1ccc(N(CC(=O)N2CCN(Cc3ccccc3)CC2)S(C)(=O)=O)cc1 | 101
CN1C(=O)/C(=C/c2ccc(C(=O)NC3CCCC3)cc2)Oc2ccccc21 | 81
COc1cc(CCC(C)NC(=O)c2ccco2)ccc1OC(=O)c1ccco1 (centres undefined) | 83
O=C(Nc1ccc([N+](=O)[O-])cc1Cl)c1cc(Cl)ccc1O | 100
Cc1ccc(-c2cn3c(n2)SCC3)cc1 | 98

A portion of the library. The share of hits here may be higher or lower than overall.
